MARV entry inh – Marburg virus entry inhibition; AID 540276; hit rate 1.8% among 300,000; Potency, µM (top dose mostly 37.8 µM), for inactives: at the top dose activity change, negative = inhibition, most hits filed as inhibitors; Marburg virus pseudotyped entry inhibition, cell reporter; control for the full effect not named in the record; about a third of the inactives were read at about 46 µM; active = well fitted inhibition curve with a large enough effect; inconclusive = small, poorly fitted or top-dose-only effect, or effect the other way; inactive = flat fitted curve, though single readings scatter; tested in HEK293 cells; about a fifth of its hits are not listed in these tables; further: on the % scale 0 is the no-effect control and ±100 the full control effect; luciferase read-out
NS1 inh – inhibitors of influenza NS1 protein function. S. cerevisiae slowed by influenza A NS1, growth recovery by OD600. Potency, µM (titrated, usually from 46.1 µM), for the others: at the highest dose activity, positive = more growth. hit rate 0.4% among 270,000; active means well fitted rising curve with a large enough effect; inconclusive means small, poorly fitted or top-dose-only effect; inactive means no such curve, though single readings can be large or run the other way; further: nearly all actives have a fitted effect of over 50% in size
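OD600 was taken as the measure of yeast growth restored by compound in an NS1-expressing S. cerevisiae strain. Cells had been washed out of glucose medium and diluted 1:100 into galactose -URA medium, pH 6.0.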
2A StopGo – FMDV 2A StopGo reporter, luciferase signal | human cells with a luciferase reporter of 2A StopGo recoding; control for the full effect not named in the record | Potency, µM (titrated, usually from 57.9 µM), for inactives: at the top dose signal change, negative = less light | hit rate 1.2% among 410,000; active = well fitted falling curve with a large enough effect; inconclusive = small, poorly fitted or top-dose-only effect; inactive = no such curve, though single readings can be large or run the other way; tested in HEK293T cells; further: on the % scale 0 is the no-effect control and ±100 the full control effect; nearly all actives have a fitted effect of over 45% in size; luciferase light after 4 h
SARS PLP yeast – inhibitors of SARS-CoV papain-like protease in yeast; S. cerevisiae expressing SARS-CoV PLpro, growth rescue; control for the full effect not named in the record; Potency, µM (series often up to 32.9 µM), for inactives: top-dose activity, positive = growth rescue; hit rate 0.19% among 330,000; active means well fitted rising curve with a large enough effect; inconclusive means small, poorly fitted or top-dose-only effect; inactive means no such curve, though single readings can be large or run the other way; further: 0% is about no effect; nearly all actives have a fitted effect of over 55% in size; growth read by luminescence after 48 h
LASV entry inh – Lassa virus entry inhibition. Lassa virus pseudotype entry inhibition, cell reporter; control for the full effect not named in the record. Potency, µM (series often up to 37.9 µM), inactives show at the top dose activity change, negative = inhibition, hits mostly inhibitors. hit rate 1.2% among 300,000. AID 540256; active means well fitted inhibition curve with a large enough effect; inconclusive means small, poorly fitted or top-dose-only effect, or effect the other way; inactive means flat fitted curve, though single readings scatter; tested in HEK293 cells; further: on the % scale 0 is the no-effect control and ±100 the full control effect; nearly all actives have a fitted effect of over 50% in size; luciferase read-out
Cruzain inh noDet – blocks cruzain activity in detergent-free assay. P25779. purified cruzain, Z-FR-AMC fluorescence, no detergent. Potency, µM, for inactives: max response, negative = inhibition, most hits filed as inhibitors. hit rate 2.3% among 200,000;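 further: plate controls were enzyme without inhibitor for no effect and buffer without enzyme for full effect; nearly all actives have a fitted effect of over 40% in size; top concentration of the series not given in the record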
Target sequence (P25779 123-467 limits assumed): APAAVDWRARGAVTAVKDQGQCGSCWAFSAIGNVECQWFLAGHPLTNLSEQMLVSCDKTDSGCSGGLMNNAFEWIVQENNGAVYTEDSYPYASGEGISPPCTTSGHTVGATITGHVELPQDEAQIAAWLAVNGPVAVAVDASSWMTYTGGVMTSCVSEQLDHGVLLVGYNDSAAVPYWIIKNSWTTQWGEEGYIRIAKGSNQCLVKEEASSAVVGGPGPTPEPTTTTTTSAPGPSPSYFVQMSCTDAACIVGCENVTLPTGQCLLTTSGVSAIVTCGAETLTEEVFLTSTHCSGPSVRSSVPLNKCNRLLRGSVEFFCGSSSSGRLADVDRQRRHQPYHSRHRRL
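Purified cruzain at 1.5 nM, pre-incubated 15 min with compound at room temperature in 100 mM sodium acetate pH 5.5, 5 mM DTT, 0.00005% Triton X-100. Reaction started with 2 uM Z-FR-AMC; AMC fluorescence increase over 60 s gives rate.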
RE007 growth inh – less growth of the S. pombe RE007 Vpr strain | S. pombe RE007 Vpr strain, BacTiter-Glo ATP luminescence, 24 h; control for the full effect not named in the record | hit rate 0.21% among 360,000 | Potency, µM (series often up to 92.2 µM), without a hit: at the highest dose activity change, negative = less growth; active = well fitted falling curve with a large enough effect; inconclusive = small, poorly fitted or top-dose-only effect; inactive = no such curve, though single readings can be large or run the other way;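 further: on the % scale 0 is the no-effect control and ±100 the full control effect; nearly all actives have a fitted effect of over 50% in size; the assay follows cell death caused by Vpr and the record does not say whether a fall means rescue or toxicity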
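Fission yeast strain RE007, carrying one chromosomally integrated HIV-1 vpr copy, was seeded at OD 0.01 in PMG+AL medium with 23 nL pinned compound. After 24 h at 30 °C and 99% humidity, viability was read by BacTiter-Glo luminescence.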
Cruzain Triton – cruzain (T. cruzi) inhibition with detergent; P25779; purified cruzain, Z-FR-AMC fluorescence, 0.01% Triton; Potency, µM, for the others: max response, negative = inhibition, usual class: inhibitors; hit rate 0.43% among 200,000; AID 1478;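 further: plate controls were neutral wells for no effect and buffer without enzyme for full effect; nearly all actives have a fitted effect of over 40% in size; top concentration of the series not given in the record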
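Cysteine protease activity tested under reducing, mildly acidic conditions (100 mM sodium acetate pH 5.5, 5 mM DTT) plus 0.01% Triton X-100. Cruzain 1.5 nM; substrate Z-FR-AMC 2 uM; 15 min compound preincubation at room temperature.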
* hit, by the source's call; ? = inconclusive; / = no result given; [ ] = another dose, or the depositor's remark. Unless noted, the call rests on the fitted dose curve; in most records, active means well fitted curve in the direction sought with a large enough effect; inconclusive means small, poorly fitted or top-dose-only effect, or another doubt; inactive means no such curve, though single readings can be large; an effect the other way counts as inactive or inconclusive. Potency means the concentration at half of the fitted maximal effect.

Compound	MARV entry inh	NS1 inh	2A StopGo	SARS PLP yeast	LASV entry inh	Cruzain inh noDet	RE007 growth inh	Cruzain Triton
CC1CC(C)CN(C(=O)CSc2nc(Cc3cccs3)nc3ccccc23)C1 (configuration not stated)	?	8%	-20%	-10%	?	5%	4%	-2.2%
CCn1c(SCC(=O)N2CCCCC2)nc2c(c1=O)SCC2	-4%	-9%	-22%	0%	-20%	/	10%	/
C=CCOc1ccc(/C(O)=C2\C(=O)C(=O)N(CCCOC)C2c2ccncc2)cc1 (configuration not stated)	-5%	2%	10%	4%	16%	5%	4%	-1.1%
CCCOC(=O)c1ccc(NC(=O)C(=O)NCC2CCCO2)cc1 (configuration not stated)	2%	1%	-4%	6%	1%	-9%	1%	-0.2%
Cc1ccc(C(=O)Nc2c[nH]c(=O)[nH]c2=O)cc1	?	-6%	17%	-6%	6%	/	5%	/
COc1ccc(NC(=O)c2cc(-c3cccs3)on2)cc1OC	6%	-9%	45%[activator]	-2%	1%	-12%	11%	6.4%
Cc1ccc(C(=O)C(C)OC(=O)c2cc(=O)[nH]c3ccccc23)cc1 (configuration not stated)	?	/	29%	4%	21%	/	-2%	/
Cc1ncc(CO)c(CNc2ccc(-c3nc4ccccc4[nH]3)cc2)c1O	/	2%	34%[activator]	1%	/	/	6%	/
c1ccc2c(-n3cnnn3)cccc2c1	3%	3%	-8%	-4%	7%	-8%	9%	-1.1%
Cc1cccc(OCC(=O)Oc2ccc(Cl)cc2)c1	-13%[46.1 µM]	/	-18%	/	0%	/	4%	/
COc1ccc(-c2cc(OC(=O)c3ccccc3)c3c(C)oc(C)c3c(=O)c2)cc1OC	-28%[46.1 µM]	/	-12%	/	-15%[46.1 µM]	3%	/	-2.4%
O=C1CC2c3ccccc3C1C1C(=O)N(Cc3ccccc3)C(=O)C21 (configuration not stated)	15%[46.1 µM]	4%	6%	1%	10%	/	87%	/
COc1ccc(CC(=O)NCc2nnc(SCCOc3ccccc3)n2C)cc1	0%[46.1 µM]	-14%	?	1%	0%	-13%	23%	4.2%
S=c1[nH]nc(C2CCCCC2)n1/N=C/C=C/c1ccccc1	-1%	6%	-19%	-21%	?	-8%	-9%	-11%
Cc1ccc(S(=O)(=O)N(Cc2ccccc2)c2ccccn2)cc1[N+](=O)[O-]	-4%[46.1 µM]	-9%	-5%	-4%	-13%[46.1 µM]	/	45%	/
CCn1c(COc2ccc3c(c2)OCO3)nnc1SCC(=O)c1ccccc1	-25%	-5%	0%	-4%	-3%	-6%	11%	-2.8%
COC(=O)N/N=C(\C)c1ccc(-n2ccnc2)cc1	?	/	36%[activator]	-4%	12%	/	7%	/
COc1cc(OC)c(C(=O)Nc2ccc(C(=O)c3ccccc3)cc2)cc1OC	?	2%	13%	16%	-3%[46.1 µM]	/	-15%	/
Cc1cccc(N(C(=O)CCC(=O)Nc2cc(C)on2)C(C(=O)NC2CCCC2)c2ccccc2)c1 (configuration not stated)	-11%[46.1 µM]	16%	-8%	-2%	-3%	/	-27%	/
C=CCNC(=O)c1cccn1-c1ccsc1C(=O)OC	-4%	-10%	-1%	5%	15%	1%	1%	4.4%
CCOC(=O)c1ccc(NC(=S)NCCC2=CCCCC2)cc1	?	18%	-18%	4%	-27%	0%	-17%	-13%
CCCCCCCCCCCCCCCC[n+]1cccc2ccccc21	?	-14%	?	-96%	7.9µM*	5%	11µM*	-22%
O=[N+]([O-])c1cccnc1N1CCN(c2ccc(F)cc2)CC1	-12%	/	11%	0%	?	/	-15%	/
Cc1c(NC(=O)c2ccc(S(=O)(=O)N3CC(C)OC(C)C3)cc2)c(=O)n(-c2ccccc2)n1C (configuration not stated)	/	-6%	7%	1%	/	/	10%	/
COCCNC(=S)c1ccc(Br)cc1	/	5%	7%	0%	/	/	?	/
O=C(Nc1ccccc1)c1cc2ccccc2o1	?	-22%	-15%	-67%	10µM*	-4%	?	-1.9%
COc1ccc(Cn2c(=O)[nH]c3cc(C(=O)NCCCN4CCCCC4)ccc3c2=O)cc1	?	-2%	0%	-2%	-2%	7%	3%	6.1%
Cc1cc(C(=O)N/N=C/c2cc(Br)cc(Br)c2OC(=O)c2cccc(F)c2)n[nH]1	18µM*	/	-23%	28%	12µM*	/	3%	/
Cc1cc(CSc2ccccc2)ccc1NC(=O)c1ccc(CN2CCOCC2)cc1	?	9%	13µM*	-4%	?	13%	-1%	-4.1%
CCc1cccc(NC(=O)CCS(=O)(=O)c2ccc(C)cc2)c1	/	/	7%	/	?	-17%	/	-2.9%
Cc1ccc(NC(=S)Nc2c(C)n(C)n(-c3ccccc3)c2=O)cc1Cl	/	-2%	-7%	1%	/	/	-11%	/
COC(=O)c1ccc(C2C(C#N)=C(N)Oc3cc(O)ccc32)cc1 (configuration not stated)	13%[46.1 µM]	-7%	-3%	5%	-12%[46.1 µM]	/	18%	/
COc1ccc(C(=O)N2CC3(C)C4CCC3(C)C2(C#N)C4)cc1OC (configuration not stated)	4%	/	-1%	0%	?	/	0%	/
CCc1nnc(NC(=O)CSc2nccn2-c2cc(C)cc(C)c2)s1	/	-10%	-21%	3%	/	-8%	12%	0.0%
CS(=O)(=O)N(Cc1ccc(Cl)cc1)c1ccc(C(=O)NCCSCc2ccco2)cc1	-31%	3%	?	-3%	9%	?	0%[3.69 µM]	0.2%
Cc1ccc(S(=O)(=O)Nc2ccc3oc(=O)sc3c2)c(C)c1	-8%[46.1 µM]	-86%	50%[activator]	-44%	0%	-16%	-2%	-5.4%
Cc1ccc(NC(=O)CN2CCCN(S(=O)(=O)c3ccc(Br)s3)CC2)cc1	-26%	-10%	?	-18%	?	12%	-23%	-2.2%
COc1ccc(C(=O)NC(=S)Nc2ccc3[nH]c(=O)[nH]c3c2)cc1	-18%[46.1 µM]	8%	1%	1%	2%[46.1 µM]	/	-11%	/
O=C(O)C1CCCCC1C(=O)Nc1cccc(C(=O)N2CCCCC2)c1 (configuration not stated)	10%	-4%	/	-3%	2%	-6%	10%	-1.1%
Cc1ccn2c(=O)nc(SCC(=O)Nc3cc(C)on3)nc2c1	-30%[46.1 µM]	/	-5%	3%	-11%	/	-4%	/
O=[N+]([O-])c1ccccc1NCc1ccccc1Cl	-29%[46.1 µM]	/	-5%	3%	11%	/	-2%	/
CCc1c(C)nc(SCC(=O)Nc2cccc(Br)c2)[nH]c1=O	2%	8%	-11%	-1%	11%	-12%	-2%	2.5%
COc1cc(SC)ccc1C(=O)NCCOc1ccccc1Cl	?	-24%	29%	-12%	?	3%	-8%	-9.9%
CCOc1ccccc1NC(=O)C(C)N(c1ccccc1)S(C)(=O)=O (configuration not stated)	5%[46.1 µM]	/	-14%	/	10%[46.1 µM]	15%	/	-4.7%
CCOc1ccccc1NC(=O)C(=O)CC(=O)c1ccc(OC)cc1	12%[46.1 µM]	1%	-16%	30%	-7%[46.1 µM]	/	-13%	/
O=[N+]([O-])c1ccc(-c2n(-c3ccccn3)c3ccccc3[n+]2-c2ccccn2)cc1	-25%	-9%	-10%	-1%	-1%	/	-14%	/
COc1ccc(S(=O)(=O)N2CCOC23CCN(S(=O)(=O)c2cc(F)ccc2F)CC3)cc1	0%	/	-3%	-1%	?	/	-6%	/
N#CC(C(=O)NCc1ccccc1)c1nc2ccccc2nc1N1CCCC1 (configuration not stated)	-2%	5%	-7%	10%	2%	-2%	-17%	-9.9%
COc1ccc(CCN=C(N)C(C)c2ccccc2)cc1OC (configuration not stated)	-3%	6%	-19%	1%	2%	/	-3%	/
O=C(Nc1cccc(C(F)(F)F)c1)c1cc(-c2ccc3c(c2)OCCO3)on1	-8%[46.1 µM]	/	10%	/	14%[46.1 µM]	9%	/	-8.6%

Continuation.
Compound	MARV entry inh	NS1 inh	2A StopGo	SARS PLP yeast	LASV entry inh	Cruzain inh noDet	RE007 growth inh	Cruzain Triton
COC1OC(CO)C(N=C(C)C)C1O (configuration not stated)	?	/	-9%	/	4%[46.1 µM]	/	1%	/
Cc1ccc(C(=O)COC(=O)c2cc(Cl)ccc2O)cc1[N+](=O)[O-]	/	14%	?	-10%	/	/	11%	/
COc1cc(NC(=O)Cn2c(-c3ccccc3)cc(C(C)=O)c2C)cc(OC)c1	/	/	-12%	/	-8%[46.1 µM]	1%	/	-8.6%
CC(C)(CNC(=O)c1ccc(Br)o1)CNC(=O)c1ccc(Br)o1	2%[46.1 µM]	0%	12%	-9%	2%[46.1 µM]	/	2%	/
CC(C)OP(=O)(c1ccc(N(C)C)cc1)C(O)c1ccncc1 (configuration not stated)	-1%	11%	-10%	0%	5%	-4%	-15%	0.8%
CC(C)Cn1cnc2c1c(=O)n(CC(=O)NN)c(=O)n2Cc1ccccc1	-8%[46.1 µM]	12%	-3%	2%	9%	/	-8%	/
CC(C)c1nc(C(=O)N2CCCC(CCC(=O)N(C)CCc3ccccn3)C2)cs1 (configuration not stated)	/	3%	0%	1%	/	/	-16%	/
CN1CCN(CC(=O)Nc2ccccc2[N+](=O)[O-])CC1	-1%	5%	-22%	19%	14%	-3%	-12%	-0.6%
COc1ccc(CCNC(=O)CCn2c(SCC(=O)N3CCCC3)nc3ccccc3c2=O)cc1OC	/	3%	-29%	1%	/	/	-1%	/
